Cruzain noTriton – inhibitors of Trypanosoma cruzi cruzain without detergent; P25779; purified cruzain, Z-FR-AMC fluorescence, no detergent; Potency, µM, for the others: max response, negative = inhibition, hits mostly inhibitors; hit rate 2.3% among 200,000;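 note: plate controls were enzyme without inhibitor for no effect and buffer without enzyme for full effect; nearly all actives have a fitted effect of over 40% in size; top concentration of the series not given in the record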
Target sequence (P25779 123-467 limits assumed): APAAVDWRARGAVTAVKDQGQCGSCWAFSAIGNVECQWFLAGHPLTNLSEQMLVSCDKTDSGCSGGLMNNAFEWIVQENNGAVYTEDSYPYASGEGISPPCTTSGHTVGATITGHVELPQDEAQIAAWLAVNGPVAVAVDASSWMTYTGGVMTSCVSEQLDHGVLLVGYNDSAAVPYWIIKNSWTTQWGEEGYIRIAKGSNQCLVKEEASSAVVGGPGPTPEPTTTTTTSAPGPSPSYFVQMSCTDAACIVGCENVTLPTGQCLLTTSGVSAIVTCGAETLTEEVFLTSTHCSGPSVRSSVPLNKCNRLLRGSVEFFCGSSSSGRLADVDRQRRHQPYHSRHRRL
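Detergent-free condition (0.00005% Triton X-100) in acetate buffer pH 5.5 with DTT. 1.5 nM enzyme and compound were pre-mixed 15 min, then 2 uM Z-FR-AMC substrate added; reaction progress from fluorescence change between first and third reads (60 s).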
Cruzain inh Det – blocks cruzain activity in presence of Triton detergent; P25779; purified cruzain, Z-FR-AMC fluorescence, 0.01% Triton; Potency, µM, for inactives: max response, negative = inhibition, actives largely listed as inhibitors; hit rate 0.43% among 200,000; AID 1478;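 note: plate controls were neutral wells for no effect and buffer without enzyme for full effect; nearly all actives have a fitted effect of over 40% in size; top concentration of the series not given in the record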
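Read-out: AMC fluorescence (360 nm excitation, 450 nm emission), four reads over 2 min, first-to-third difference used. Conditions: cruzain 1.5 nM, Z-FR-AMC 2 uM, pH 5.5 acetate, 5 mM DTT, 0.01% Triton X-100.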
NS1 inh – blocks influenza NS1 protein function | S. cerevisiae slowed by influenza A NS1, growth recovery by OD600 | hit rate 0.4% among 270,000 | Potency, µM (titrated, usually from 46.1 µM), for the others: at the top dose activity, positive = more growth; active means well fitted rising curve with a large enough effect; inconclusive means small, poorly fitted or top-dose-only effect; inactive means no such curve, though single readings can be large or run the other way; note: nearly all actives have a fitted effect of over 50% in size
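A cell-based growth assay was used: compounds that relieve NS1-induced slow growth of budding yeast raise OD600. Assay medium was yeast nitrogen base with ammonium sulphate and -URA supplement, pH 6.0, with 2% galactose.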
Lassa entry inh – inhibitors of Lassa virus binding or cell entry; Lassa virus pseudotype entry inhibition, cell reporter; control for the full effect not named in the record; Potency, µM (highest dose often 37.9 µM), for inactives: at the highest dose activity change, negative = inhibition, most hits filed as inhibitors; hit rate 1.2% among 300,000; AID 540256; active means well fitted inhibition curve with a large enough effect; inconclusive means small, poorly fitted or top-dose-only effect, or effect the other way; inactive means flat fitted curve, though single readings scatter; tested in HEK293 cells; note: % is set by controls: 0 for no effect and ±100 for the full control effect; nearly all actives have a fitted effect of over 50% in size; luciferase read-out
MARV entry inh – Marburg virus entry inhibition. Marburg virus pseudotyped entry inhibition, cell reporter; control for the full effect not named in the record; about a third of the inactives were read at about 46 µM. Potency, µM (titrated, usually from 37.8 µM), for inactives: at the top dose activity change, negative = inhibition, usual class: inhibitors. hit rate 1.8% among 300,000; active = well fitted inhibition curve with a large enough effect; inconclusive = small, poorly fitted or top-dose-only effect, or effect the other way; inactive = flat fitted curve, though single readings scatter; tested in HEK293 cells; about a fifth of its hits are not listed in these tables; note: % is set by controls: 0 for no effect and ±100 for the full control effect; luciferase read-out
RE007 growth inh – less growth of the S. pombe RE007 Vpr strain. hit rate 0.21% among 360,000. AID 651644. Potency, µM (doses to about 92.2 µM), without a hit: at the top dose activity change, negative = less growth. S. pombe RE007 Vpr strain, BacTiter-Glo ATP luminescence, 24 h; control for the full effect not named in the record; active = well fitted falling curve with a large enough effect; inconclusive = small, poorly fitted or top-dose-only effect; inactive = no such curve, though single readings can be large or run the other way;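 note: % is set by controls: 0 for no effect and ±100 for the full control effect; nearly all actives have a fitted effect of over 50% in size; the assay follows cell death caused by Vpr and the record does not say whether a fall means rescue or toxicity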
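Fission yeast strain RE007, carrying one chromosomally integrated HIV-1 vpr copy, was seeded at OD 0.01 in PMG+AL medium with 23 nL pinned compound. After 24 h at 30 °C and 99% humidity, viability was read by BacTiter-Glo luminescence.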
StopGo reporter – FMDV 2A StopGo reporter, luciferase signal; human cells with a luciferase reporter of 2A StopGo recoding; control for the full effect not named in the record; Potency, µM (doses to about 57.9 µM), without a hit: at the top dose signal change, negative = less light; hit rate 1.2% among 410,000; AID 1159524; active = well fitted falling curve with a large enough effect; inconclusive = small, poorly fitted or top-dose-only effect; inactive = no such curve, though single readings can be large or run the other way; tested in HEK293T cells; note: % is set by controls: 0 for no effect and ±100 for the full control effect; nearly all actives have a fitted effect of over 45% in size; luciferase light after 4 h
SARS PLpro yeast – inhibitors of SARS-CoV papain-like protease in yeast. S. cerevisiae expressing SARS-CoV PLpro, growth rescue; control for the full effect not named in the record. Potency, µM (top dose mostly 32.9 µM), inactives show top-dose activity, positive = growth rescue. hit rate 0.19% among 330,000. AID 485353; active means well fitted rising curve with a large enough effect; inconclusive means small, poorly fitted or top-dose-only effect; inactive means no such curve, though single readings can be large or run the other way; note: 0% is about no effect; nearly all actives have a fitted effect of over 55% in size; growth read by luminescence after 48 h
* marks the source's active call; other numbers are inactive results; ? = inconclusive; . = no result given; & = joins results of further samples; [ ] = another dose, or the depositor's remark. Unless noted, calls come from the whole dose curve; as a rule, active = well fitted curve in the direction sought with a large enough effect; inconclusive = small, poorly fitted or top-dose-only effect, or another doubt; inactive = no such curve, though single readings can be large; an effect the other way counts as inactive or inconclusive. Potency is the fitted concentration of half-maximal effect.

SMILES	Cruzain noTriton	Cruzain inh Det	NS1 inh	Lassa entry inh	MARV entry inh	RE007 growth inh	StopGo reporter	SARS PLpro yeast
COC1=NS(=O)(=O)c2ccccc21	-8%	-5.3%	-10%	1%	-2%	14%	-10%	1%
Cc1cc(C)n2nc(C(=O)N(C)C(c3ccccc3)c3ccccc3)nc2n1	.	.	.	3%	?	2%	2%	-1%
COC(=O)/C(=C/c1ccc(F)cc1)NC(C)=O	9%	1.8%	0%	5%	21%	4%	-15%	29%
NC(=O)c1cc(S(=O)(=O)N2CCOCC2)ccc1N1CCCC1	.	.	-11%	.	.	17%	-6%	-4%
O=C(CNC(=O)c1cc2c(n(-c3ccccc3)c1=O)CCCC2=O)c1ccccc1	.	.	-2%	8%	8%	0%	-19%	-6%
COc1ccc(/C=C/C(=O)Nc2nc(N)n(-c3ccccc3)n2)cc1	5%	-14%	6%	1%	?	13%	0%	-6%
COc1cccc(CNS(=O)(=O)c2c(C(=O)N3CCCCCC3)c(C)n(C)c2C)c1	.	.	-3%	11%[46.1 µM]	6%[46.1 µM]	-16%	31%[activator]	-10%
CC(=O)Oc1c(Cl)cc(Cl)cc1/C=C/c1ccc2ccccc2n1	-16%	-6.7%	-7%	15%	20%	0%	18%	2%
COc1cccc(/C=N/Nc2nc3ccccc3[nH]2)c1O	.	.	2%	.	.	8%	19%	7%
COC(=O)CCc1c[nH]c2ccc([N+](=O)[O-])cc12	.	.	.	11%[46.1 µM]	?	12%	8%	.
S=C(Nc1cc(Cl)ccc1Oc1ccccc1)N1CCN(c2ccccn2)CC1	.	.	-4%	?	?	-15%	-5%	1%
COc1ccc(NC2=CC(c3ccc(OC)c(OC)c3)N(c3ccc(OC)cc3)C2=O)cc1 (stereo not drawn)	?	-2.7%	8.9µM*	?	-23%	.	-15%	?
O=C(CN1CCCCC1)Nc1ccc(S(=O)(=O)N2CCCCCC2)cc1	-2%	-3.4%	-8%	-6%	-21%	5%	17%	3%
Nn1c(SCC(=O)Nc2ccc3c(c2)OCCO3)nnc1C(F)(F)F	-9%	0.5%	7%	0%	3%&3%&3%	9%	-4%	-11%
Cc1c(Cl)cccc1NC(=O)CN1C(=O)CSc2ccc(S(=O)(=O)N3CCCC3)cc21	-3%	2.3%	.	0%[46.1 µM]	.	.	9%	.
CCOCCCNC(=S)N(CCO)Cc1cc2cc3c(cc2[nH]c1=O)OCCO3	.	.	16%	.	.	0%	-14%	3%
CCOC(=O)CNS(=O)(=O)c1c(C)noc1C	-7%	3.0%	-6%	-6%	17%	-18%	3%	0%
COc1cccc(NC(=O)C2Cc3ccccc3CN2C(=O)c2ccco2)c1 (stereo not drawn)	.	.	-4%	10%[46.1 µM]	?	-6%	25%	-6%
Cc1c(NC(=O)c2ccc(Cl)c(S(=O)(=O)N3CCOCC3)c2)c(=O)n(-c2ccccc2)n1C	11%	0.9%	?	10%	9%	4%	-23%	0%
Nc1ccc(-c2nc3c(ccc4ccccc43)[nH]2)cc1	.	.	-36%	.	.	-10%	-11%	?
CCOc1ccccc1N1CCN(Cc2cc3c(cc2[N+](=O)[O-])OCO3)CC1	.	.	12%	-11%[46.1 µM]	-10%[46.1 µM]	-18%	?	3%
COc1ccc(C2C=C(c3cccs3)Nc3nc(CCCO)nn32)cc1 (stereo not drawn)	?	-29%	1%	.	8%	.	.	-3%
Cc1ccccc1-n1c(SCC(=O)N(C)C2CCS(=O)(=O)C2)nc2ccccc2c1=O (stereo not drawn)	.	.	6%	9%	18%[46.1 µM]	-7%	-17%	2%
Oc1ccc(-c2nccc(-c3ccccn3)n2)cc1	.	.	-4%	.	.	-6%	85%[activator]	-2%
CC(C)(C)C1CCC(C(=O)OCC(=O)N2CCN(C(=O)c3ccco3)CC2)CC1 (stereo not drawn)	.	.	1%	-26%	0%[46.1 µM]	-14%	-29%	1%
COc1ccccc1-n1c(-c2cc(-c3ccc(F)cc3)n[nH]2)n[nH]c1=S	.	.	5%	-5%	8%[46.1 µM]	8%	-11%	-1%
CCc1ccc(NC(=S)Nc2ccc(S(=O)(=O)Nc3ncccn3)cc2)cc1	.	.	0%	.	.	19%	16%	-1%
CC(C)(C)NC(=O)COc1ccc(CNc2ncn[nH]2)cc1	.	.	0%	5%	24%[46.1 µM]	-14%	3%	1%
O=C(Nc1ccc2c(c1)OCCO2)N1CCOCC1	.	.	.	?	-4%[46.1 µM]	7%	35%[activator]	0%
Cc1ccc(S(=O)(=O)N/N=C/c2cccc([N+](=O)[O-])c2)cc1	-7%	-8.7%	-7%	7%	-4%	.	90%[activator]	-25%
CN(c1ccc(OC(=O)CN2C(=O)NC3(CCCC3)C2=O)cc1)S(=O)(=O)c1ccccc1	.	.	.	-11%	18%	2%	-10%	1%
COC(=O)c1ccc(NC(=O)CN(c2ccc(OC)cc2)S(C)(=O)=O)cc1	0%	-2.6%	-10%	0%	0%	-3%	64%[activator]	-5%
O=C(CN1CCCCC1)NNc1nc(-c2ccccc2)c2cc(Br)ccc2n1	.	.	3%	7%[46.1 µM]	-5%[46.1 µM]	-6%	-22%	-1%
Cc1ccc(/C=N\NC(=O)c2ccc(Cn3cc(Br)c([N+](=O)[O-])n3)o2)o1	.	.	6%	-24%	?	9%	-15%	0%
COCCOC(=O)C1=C(C)N=C2SCCC(=O)N2C1c1cccs1 (stereo not drawn)	.	.	3%	10%	16%[46.1 µM]	-5%	-13%	0%
Cc1cc(NCC2CCCCC2)nc2ccccc12	.	.	-17%	.	1µM*	-14%	-2%	1%
Cc1nc(-c2ccc(S(=O)(=O)Nc3ccccc3C)cc2)co1	.	.	-16%	-2%[46.1 µM]	?	8%	12%	-1%
O=C(CN1CCOCC1)Nc1ccc(-c2nc3ccccc3[nH]2)cc1	-7%	-7.4%	0%	-3%	?	2%	43%[activator]	6%
COc1ccc2c(ccc[n+]2[O-])c1	.	.	.	0%[46.1 µM]	19%[46.1 µM]	-12%	-3%	.
Cc1ccccc1C(=O)N1CCN(c2ccc(NC(=O)c3cccc(OC(C)C)c3)cc2)CC1	.	.	-1%	-2%	11%	12%	16µM*	-1%
COc1ccc(NC(C)(C)c2nnnn2-c2c(C)cccc2C)cc1	.	.	5%	?	2%[46.1 µM]	32%	?	-2%
O=C(Nc1cc(-c2ccc(Cl)cc2)no1)c1ccc(F)cc1	-24%	-0.6%	.	?	27%[46.1 µM]	.	2%	.
Cc1noc(C)c1C(=O)Nc1nc(-c2ccc(F)c(F)c2)cs1	.	.	.	14%	3%	?	12%	-14%
CCOCCCNC(=O)C(c1ccc(OC)cc1)N(Cc1ccc2c(c1)OCO2)C(=O)c1cnccn1 (stereo not drawn)	.	.	.	?	0%	13%	-4%	0%
CCOC(=O)CSC1=NC(=O)/C(=C\c2ccc(Cl)cc2)S1	?	-16%	-186%	-12%	1%	?	18µM*	-49%
O=C(/C=C/c1ccccc1)NCCS(=O)(=O)N1CCN(c2ccc(F)cc2)CC1	.	.	.	-23%	-6%	-15%	-23%	0%
O=C(NCc1ccccn1)C(C(=O)c1ccc(F)cc1)n1ccccc1=O (stereo not drawn)	-8%	0.4%	-4%	6%	?	7%	8%	4%
CN1CCN(C(c2ccc(Cl)cc2)c2cc(Cl)c3cccnc3c2O)CC1 (stereo not drawn)	.	.	-104%	10µM*	?	8%	-3%	-23%
COc1cccc(CNC(=O)c2ccc(CNS(=O)(=O)c3ccc(C)cc3)cc2)c1	-3%	0.5%	.	-32%[46.1 µM]	.	.	1%	.
COc1cc(C(=O)Nc2ccccn2)cc(OC)c1OC	9%	0.5%	2%	0%	-2%&-2%[46.1 µM]	27%	2%	-1%
O=C(NCc1n[nH]c(=S)n1-c1ccc(F)cc1)c1ccc(S(=O)(=O)N2CCCCC2)cc1	.	.	1%	0%[46.1 µM]	-16%[46.1 µM]	6%	-1%	-1%
CN(C)CCC(Oc1ccccc1OCc1ccccc1)c1ccccc1 (stereo not drawn)	.	.	.	?	?	-11%	-8%	.
O=C(Nc1ccc2oc(-c3cccnc3)nc2c1)c1ccc([N+](=O)[O-])o1	.	.	-3%	?	?	-6%	-27%	-1%
CC12CCC(=O)N1C(C(=O)Nc1nnc(SCc3ccccc3F)s1)CS2 (stereo not drawn)	.	.	9%	?	12%[46.1 µM]	10%	8%	-7%
C=CCn1c(=O)c2ccccc2n2c(SCC(=O)NC(C)C)nnc12	.	.	4%	.	.	2%	-9%	-1%
CCOC(=O)Cc1csc(NC(=O)CCc2ccc(S(=O)(=O)N3CCOCC3)cc2)n1	-20%	-2.6%	-3%	-26%	-2%&-12%	-23%	.	-3%
Cc1ccc(NC(=O)CS(=O)(=O)c2cn(C)c3ccccc23)c(C)c1	.	.	0%	.	.	-7%	12%	-2%
COc1ccc(CNC(=O)CSc2nnc3c(Cl)cc(C(F)(F)F)cn23)cc1OC	6%	-2.9%	19%	20%	-16%	-6%	5%	11%
COc1ccc(N2CCN(c3oc(COc4ccccc4Cl)nc3C#N)CC2)cc1	-15%	1.5%	12%	-29%	?	-8%	-9%	.
Cc1ccc(N2C(=O)[C@@H]3C(C(=O)CCN4C(=O)c5ccccc5C4=O)=NN[C@@H]3C2=O)cc1	2%	-4.0%	0%	2%	7%[46.1 µM]	2%	-8%	-9%
CC(NC(=O)c1ccc2c(c1)CCN2S(C)(=O)=O)c1ccccc1 (stereo not drawn)	0%	2.4%	.	1%[46.1 µM]	1%[46.1 µM]	.	-18%	.
COc1ccc(CN2C[C@H](Cc3ccccc3)[C@@H](CC(=O)Nc3ccccc3)C2=O)cc1	.	.	2%	.	.	-6%	7%	-1%

Looked up above:
Reading of `Cc1ccc(NC(=O)CS(=O)(=O)c2cn(C)c3ccccc23)c(C)c1` in SARS PLpro yeast: -2%
Reading of `O=C(NCc1ccccn1)C(C(=O)c1ccc(F)cc1)n1ccccc1=O` (stereo not drawn) in NS1 inh: -4%

Source: PubChem BioAssay
